RanGTP-Imp inh: inhibitors of RanGTP-importin-beta interaction, primary screen, biochemical, FRET, CFP-Ran, YFP-importin-beta, homogeneous | Ran GTPase (GTP-bound) - importin-beta complex | cell-free CFP-Ran/YFP-importin-beta FRET ratio | inhibition, % (concentration not given with the values) | actives 1.1% (n = 300,000) | AID 2216, 2009;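 active = most replicates above 15%; inconclusive = exactly half above 15%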;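 note: 0% = DMSO wells and 100% = Ran loaded with GDP instead of GTP; wells of about 40 µL received 100 nL stock; the first replicate is given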
Vif A3G: inhibitors of Vif binding to APOBEC3G peptide, primary screen, biochemical, TR-FRET, GST-Vif 1-94, biotin-A3G peptide, dose response retest (AID 1117319). inhibition, %, or IC50 in µM where a hit was titrated. actives 0.57% (n = 260,000). TR-FRET GST-Vif / biotin-A3G peptide binding; higher % means a stronger effect; test concentration not given here; strong numbers were not always called active. Virion infectivity factor (Human immunodeficiency virus type 1 group M subtype B (isolate …;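 active = above the screen mean plus three standard deviations and confirmed in dose response; inconclusive = results disagree or hit not tested in dose response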;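 note: Vif residues 1-94 fused to GST binding biotinylated APOBEC3G peptide 110-148; 0% = full assay without inhibitor and 100% = GST in place of GST-Vif; retest series ran down from 100 µM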
MLL AF4-AF9 inh: inhibitors of AF4 peptide binding to AF9, primary screen, biochemical, AlphaScreen, biotin-AF4 peptide, FLAG-AF9, single point | inhibition, % at 10 µM | actives 0.47% (n = 350,000) | AID 651704, 2012;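 active = every replicate reaching a set inhibition limit, whatever the replicate mean, cut at about 25% in these data; inconclusive = mean inhibition reaches that limit but some replicates miss it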;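 note: 0% = plate neutral control median and 100% = total signal loss; the record names both 10 and 1 µM as test concentration; the first replicate is given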
Target sequence (P42568 whole entry, looked up): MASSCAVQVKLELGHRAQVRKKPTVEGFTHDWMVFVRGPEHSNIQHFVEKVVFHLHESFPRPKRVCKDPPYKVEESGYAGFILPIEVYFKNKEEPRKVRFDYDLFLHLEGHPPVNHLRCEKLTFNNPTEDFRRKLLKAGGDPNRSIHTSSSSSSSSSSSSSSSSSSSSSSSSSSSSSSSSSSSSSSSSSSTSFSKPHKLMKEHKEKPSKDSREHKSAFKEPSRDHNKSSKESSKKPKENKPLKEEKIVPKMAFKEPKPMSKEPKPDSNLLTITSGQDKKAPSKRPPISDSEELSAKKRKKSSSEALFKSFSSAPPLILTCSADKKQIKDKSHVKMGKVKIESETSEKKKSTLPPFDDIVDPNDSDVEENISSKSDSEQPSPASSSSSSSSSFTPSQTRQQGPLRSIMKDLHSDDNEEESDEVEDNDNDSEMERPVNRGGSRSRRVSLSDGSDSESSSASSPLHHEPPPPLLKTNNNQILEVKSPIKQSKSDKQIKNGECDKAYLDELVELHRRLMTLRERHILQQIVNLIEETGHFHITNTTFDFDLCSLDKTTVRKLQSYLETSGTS
A1 inh: caspase 3/7 activation in MEF A1-2A-BIM cells, primary screen, A1 inhibitor project, cell-based, luminescence, HTS; Caspase-Glo 3/7 luminescence, 3 h; percent of clofoctol response, vehicle zero; caspase activation, % (concentration not given with the values); actives 0.066% (n = 330,000); AID 2462, 2010;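 active = over half of replicate activation scores above 10%, or exactly half above 10 with the replicate mean above 10; inconclusive = replicate mean below 10 yet half the replicates above 10; inactive = over half of replicates below 10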;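 note: wells of about 30 µL received 50 nL stock; many hits fall short of the cut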
Beta apoptosis: inhibitors of cytokine-induced beta cell apoptosis, primary screen, luminescence | INS-1E cytokine-induced death, ATP luminescence, 48 h; percent of positive-control rescue, neutral wells zero | actives 0.8% (n = 300,000) | protection from apoptosis, % (no concentration beside the values) | AID 435005, 2010;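 active = all replicates at 75% or more, or half of them and the mean; inconclusive = half reach 75% but not the mean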;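 note: 0% = cytokine-treated negative control wells and 100% = positive control rescue; higher means more ATP so stronger rescue from cytokine killing; wells of about 40 µL received 100 nL stock; the first replicate is given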
Calb FLC: C. albicans growth inhibition with fluconazole, primary screen, CaCi-2 strain, Alamar Blue fluorescence; growth inhibition, % (no concentration beside the values); actives 0.57% (n = 300,000); C. albicans CaCi-2 (fluconazole-resistant clinical isolate) + fluconazole, 48 h;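 active = most replicates above 75%; inconclusive = exactly half above 75%; inactive = most below 75%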;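 note: all wells also contain fluconazole at 8 µg/ml as a sub-toxic cotreatment; 0% = median of DMSO wells and 100% = median of geldanamycin control wells; wells of about 8 µL received 7.5 nL stock; the first replicate is given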
LANA-H2B inh: blockers of LANA interaction with H2A/H2B – biochemical, FP readout, HTS, primary screen; Protein LANA1 (Human herpesvirus 8 type P (isolate GK18)), Q9QR71; cell-free LANA-H2A/H2B peptide, fluorescence polarization; inhibition, % (no concentration beside the values); actives 0.6% (n = 320,000); AID 2629, 2010; in the data active = inhibition mostly above about 10%, no sharp cut-off; inactive = mostly below about 6.7%;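 note: stock transfer was 7.5 nL into about 10 µL; 0% = median of vehicle wells and 100% = median of positive control wells; one replicate is shown; the record names a cut of 25% in any replicate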
T cruzi repl: inhibitors of intracellular T. cruzi growth, primary screen, luminescence, NIH3T3 host cells | T. cruzi beta-gal in NIH3T3, 90 h | actives 1.4% (n = 300,000) | AID 1885, 2009 | inhibition, % (no concentration beside the values);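 active = mean inhibition across valid replicates above about 55%, limit read from the data; inconclusive = mean below that limit but half or more replicates reach it; inactive = mean below it, under half of replicates reach it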;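 note: signal also drops with host cell toxicity which is not excluded here; 0% = plate median of DMSO wells and 100% = zero luminescence signal; higher percent means less beta-gal luminescence so fewer parasites; stock transfer was 50 nL into about 50 µL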
Active calls of the source: *; ? = inconclusive; . = no result given; & = joins results of further samples. Rows were taken by chance (roughly 4.3% active in at least one column).

SMILES	RanGTP-Imp inh	Vif A3G	MLL AF4-AF9 inh	A1 inh	Beta apoptosis	Calb FLC	LANA-H2B inh	T cruzi repl
CCOC(=O)c1c(-c2ccc(OC)cc2)csc1NC(=O)CSc1ccccc1	-4.1	2%	.	-1.3	-10	-6	3.1	-3
CCOc1cc(CNCCSc2nnnn2C)cc(Br)c1OCc1ccccc1	0.8	-11%	.	0.4	48	-1	-5.9	38
O=C(CN1CCN(c2ncccn2)CC1)N1CCCc2c1c(=O)oc1ccc(O)cc21	.	10%	.	-0.5	-6	.	0.0	.
O=C(O)c1ccccc1-c1ccc(/C=C/c2cc(C(F)(F)F)[nH]c(=O)n2)o1	-464	5%	-1.1	.	.	-9	.	-3
O=C(NCc1cccc(Br)c1)C1CC2Cn3c(nc4ccccc43)C2N1c1ccccc1 (stereo not given)	-0.2	.	-1.5	-0.3	-8	2	3.2	41
Cc1cccc(/C(N)=N/OC(=O)C23CC4CC(CC(C4)C2)C3)c1	-0.4	4%	-3.5	0.3	-1	-8	1.2	-10
CC(C)(C)c1ccc(C(=O)NCCC(=O)N2CCC3(CC2)NCCc2[nH]cnc23)cc1	-1.2	-4%	6.2	-0.4	7	-5	0.6	-7
Clc1ccc(OCCNCCc2ccccc2)cc1	3.5	.	1.0	0.5	.	3	1.1	48
CCOc1ccc2oc(C(=O)N3CCN(c4ccccc4OCC)CC3)c(C)c2c1	0.6	6%	-4.8	0.4	-5	0	-0.4	22
O=C(CSc1nc2ccccc2c(=O)n1NC(=O)c1ccccc1)c1ccc(Cl)cc1	4.9	-2%&-4%	.	-0.3	.	-27	-2.9	13
CN(C)/C=C(\C#N)C(=O)N/N=C/c1ccc(F)cc1	?	18%	0.1	-0.1	-4	-15	0.9	-6
O=C(Nc1cccc(Cl)c1N1CCCCC1)c1ccc(N2CCOCC2)c([N+](=O)[O-])c1	2.5	-4%	-6.9	0.0	-4	48	-3.3	6
CCN1CCc2c(sc(NC(=O)c3ccc(S(=O)(=O)N4CCCCCC4)cc3)c2C(=O)NC)C1	57*	.	-0.5	1.8	.	-4	-12	25
CCCC(=O)N/C(N)=N/c1nc(C)c2cc(C)ccc2n1	?	-14%	-2.0	0.4	2	-11	-9.4	-1
CCOC(=O)c1cnc(SCC(=O)Nc2ccccc2C(=O)OC)nc1N	1.0	.	.	0.4	.	-8	3.3	-3
CCN(CC)S(=O)(=O)c1cc(NC(=O)[C@@H](NC(N)=O)C(C)C)ccc1C	-3.3	?	-1.9	0.2	-4	20	-1.8	-4
CCCCN(CCCC)CCn1cnc2c([nH]c3ccc(OC)cc32)c1=O	-3.5	0%	5.5	-0.7	2	-2	0.7	48
COc1ccccc1N1CCN(C(=O)CCCCCn2c(=O)[nH]c3ccsc3c2=O)CC1	2.2	-7%	-30	0.4	-5	1	-1.7	0
Cn1c(N)c(C(=O)CSc2nc(C3CC3)n(-c3ccccc3)n2)c(=O)[nH]c1=O	.	-3%	-0.7	0.1	-5	.	1.3	.
Cc1c[n+](CC(=O)c2ccccc2)cs1	1.6	.	3.6	0.2	-5	4	4.8	-11

An excerpt from above in order of SMILES length, falling:
SMILES	RanGTP-Imp inh	Vif A3G	MLL AF4-AF9 inh	A1 inh	Beta apoptosis	Calb FLC	LANA-H2B inh	T cruzi repl
CCN(CC)S(=O)(=O)c1cc(NC(=O)[C@@H](NC(N)=O)C(C)C)ccc1C	-3.3	?	-1.9	0.2	-4	20	-1.8	-4
CCCC(=O)N/C(N)=N/c1nc(C)c2cc(C)ccc2n1	?	-14%	-2.0	0.4	2	-11	-9.4	-1
Clc1ccc(OCCNCCc2ccccc2)cc1	3.5	.	1.0	0.5	.	3	1.1	48

Carrying on.
SMILES	RanGTP-Imp inh	Vif A3G	MLL AF4-AF9 inh	A1 inh	Beta apoptosis	Calb FLC	LANA-H2B inh	T cruzi repl
COc1ccc(/C=C2\SC(=S)N(c3cccnc3)C2=O)cc1	-3.9	.	0.0	0.7	-3	29	5.1	1
O=C(CCCC(=O)NCCc1ccccc1)NCCc1ccccc1	1.5	6%	-0.6	-0.9	2	1	-3.0	-12
CC(=O)OC(C(=O)Nc1ccccc1)C(C)S(=O)(=O)c1ccccc1 (stereo not given)	1.7	-5%	.	-0.7	.	0	-2.8	-13
COc1ccccc1CNCc1cc(Br)ccc1OC	5.0	-4%	1.0	1.1	2	-36	2.2	12
COc1ccccc1-c1coc2c(CN(C)C)c(O)ccc2c1=O	-0.4	.	-1.3	0.3	-11	15	-0.7	-13
CC(=O)N/N=C(\C)CC(=O)NC(C)(C)C	-3.0	.	-5.0	1.6	-10	-15	4.0	-5
Cc1cc(C)c(C(N)=O)c(SCC(=O)c2ccc(Cl)cc2)n1	3.4	0%	-0.1	-0.4	-2	6	-7.0	-8
O=C(COC(=O)c1cc(Cl)cc(Cl)c1)NCc1ccco1	.	.	-0.7	0.2	-2	.	-0.6	.
Nc1ccc(C23CC4CC(CC(C4)C2)C3)cc1	1.4	?	1.0	-1.1	-10	-3	.	-4
CCOC(=O)CNC=C(C(=O)OCC)C(=O)OCC	1.8	-3%	.	0.7	1	-6	-7.8	-7
COc1cc(/C=C(\C#N)c2nc3ccccc3s2)cc([N+](=O)[O-])c1O	8.6	14%	3.3	.	.	88*	.	19
CC1CCc2nc(N)c(C#N)c(-c3ccncc3)c2C1 (stereo not given)	-2.7	23%	.	0.4	-1	9	4.0	-8
CSc1nccc(Nc2ccccc2)c1C#N	4.3	?	.	-0.4	.	-22	-0.7	-12
COCCNCCCOc1ccc(C(C)(C)c2ccccc2)cc1	0.2	-5%	.	0.5	-10	0	.	5
COc1ccc(CCNC2CC(=O)N(C)C2=O)cc1OC (stereo not given)	4.9	-5%	.	0.5	-5	11	-8.3	-9

Whole records from above:
`COc1ccccc1CNCc1cc(Br)ccc1OC` is entered as RanGTP-Imp inh: 5.0; Vif A3G: -4%; MLL AF4-AF9 inh: 1.0; A1 inh: 1.1; Beta apoptosis: 2; Calb FLC: -36; LANA-H2B inh: 2.2; T cruzi repl: 12
`O=C(COC(=O)c1cc(Cl)cc(Cl)c1)NCc1ccco1` is entered as RanGTP-Imp inh: .; Vif A3G: .; MLL AF4-AF9 inh: -0.7; A1 inh: 0.2; Beta apoptosis: -2; Calb FLC: .; LANA-H2B inh: -0.6; T cruzi repl: .

Screening data (PubChem BioAssay)
